Mtb hypoxia rep – reduces hypoxia-regulated biosensor signal in M. tuberculosis. M. tuberculosis hypoxia-regulated fluorescent reporter, fluorescence. 300,000 compounds, 0.1% hits. fluorescence inhibition, % (concentration not given with the values). AID 1159583;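 active means 35 to 45% if threefold the growth effect, above 45% if 1.5-fold the growth effect; inactive means the rest, general growth blockers included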;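 further: wells of about 50 µL received 100 nL stock; 0% = vehicle wells and 100% = reference inhibitor wells; whole bacteria with a GFP reporter of the hypoxia response; strong numbers were not always called active; many hits fall short of the cut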
BJeLR viability – BJeLR cell viability loss | BJeLR (HRASV12) viability, CellTiter-Glo ATP luminescence, 48 h; reference of the scale not given here | inhibition, % (no concentration beside the values) | 300,000 compounds, 0.17% hits;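 active means replicate mean above 50%; inconclusive means above 50% but judged a plate artefact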;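 further: 50 nL library stock added to about 25 µL; numbers are from one replicate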
Sa RN4220 lethal – kills Staphylococcus aureus RN4220. inhibition, % (test concentration not listed). 330,000 compounds, 0.33% hits. S. aureus RN4220 growth, OD600, 16 h;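 active means z-score of -3 or lower and OD600 up to 0.18 on both plates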;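 further: plate controls were untreated cells for no effect and reference antibiotic for full effect; stock transfer was 100 nL into about 80 µL; one replicate is shown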
ugtP null kill – growth inhibition of S. aureus ugtP deletion strain; growth inhibition, % (concentration not given with the values); 330,000 compounds, 0.54% hits; AID 1259309; S. aureus RN4220 ugtP deletion, OD600 growth, 16 h; some inactives read as strong as hits;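 active means z-score under -3 and OD600 up to 0.15 on both plates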;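 further: plate controls were untreated wells for no effect and antibiotic for full effect; wells of about 80 µL received 100 nL stock; the first replicate is given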
PrP UTR inh – suppresses PrP 5' UTR mRNA reporter expression; cell-based PrP 5' UTR mRNA reporter, plate reader; inhibition, % (concentration not given with the values); 340,000 compounds, 0.35% hits; AID 488862;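 active means every replicate at 50% or more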;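 further: 0 = median of the neutral control wells; tested in H4 reporter cells; numbers are from one replicate; inactives centre near -14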
Bead autofluor – compound fluorescence in toxin protease inhibitor counterscreen. compound autofluorescence counterscreen, microsphere flow cytometry; stronger effect = higher value. fluorescence intensity (test concentration not listed). 360,000 compounds, 3.1% hits. AID 624483;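 active means at least 3 SD above the mean of all compounds, about 16000 in these data; inconclusive means too few beads counted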;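 further: 100 nL of 1 mM stock went into each well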
Mtb hypoxia rep growth – recorded beside Mtb hypoxia rep, whose call it bears; growth inhibition, %; measured here: M. tuberculosis growth (absorbance);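 0% = vehicle and 100% = reference antibiotic; read after six days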
* marks the source's active call; other numbers are inactive results; ? = inconclusive; . = not tested or not shown.

SMILES	Mtb hypoxia rep	Mtb hypoxia rep growth	BJeLR viability	Sa RN4220 lethal	ugtP null kill	PrP UTR inh	Bead autofluor
Cc1cccc(NC(=O)c2ccccc2NC(=O)C2CCCCC2)c1C	7	6	-1	2.3	-2	-15	6430
CC(/C=N/NC(=O)c1cccnc1)=C\c1ccccc1	.	.	-7	.	.	-68	2218
O=S(=O)(c1ccc(-c2nnco2)cc1)N1CCCCC1	7	5	-7	3.6	5	-15	3510
Cc1ccc(NC(=O)c2ccc(S(=O)(=O)C(F)F)cc2)c(C)c1	4	13	4	0.2	1	-10	2003
COc1cccc(Oc2ccc(C(F)(F)F)cc2NC(=O)CCc2nc3ccccc3c(=O)[nH]2)c1	7	2	-2	0.3	8	-26	6425
CC(=NNc1nnc(C)c(=O)[nH]1)C(=O)O	8	6	.	3.7	2	.	.
COc1ccc(N(C(=O)c2ccco2)C(C(=O)NC2CCCC2)c2cccs2)cc1OC (configuration not stated)	.	.	-5	0.4	1	-2	2901
COc1nc2ccccc2nc1N1CCN(c2ccc(F)cc2)CC1	8	0	-1	3.8	13	-17	3595

Part of the list above, as labelled records:
COc1cccc(Oc2ccc(C(F)(F)F)cc2NC(=O)CCc2nc3ccccc3c(=O)[nH]2)c1
  Mtb hypoxia rep = 7
  Mtb hypoxia rep growth = 2
  BJeLR viability = -2
  Sa RN4220 lethal = 0.3
  ugtP null kill = 8
  PrP UTR inh = -26
  Bead autofluor = 6425
Cc1cccc(NC(=O)c2ccccc2NC(=O)C2CCCCC2)c1C
  Mtb hypoxia rep = 7
  Mtb hypoxia rep growth = 6
  BJeLR viability = -1
  Sa RN4220 lethal = 2.3
  ugtP null kill = -2
  PrP UTR inh = -15
  Bead autofluor = 6430
O=S(=O)(c1ccc(-c2nnco2)cc1)N1CCCCC1
  Mtb hypoxia rep = 7
  Mtb hypoxia rep growth = 5
  BJeLR viability = -7
  Sa RN4220 lethal = 3.6
  ugtP null kill = 5
  PrP UTR inh = -15
  Bead autofluor = 3510

(listing goes on)
SMILES	Mtb hypoxia rep	Mtb hypoxia rep growth	BJeLR viability	Sa RN4220 lethal	ugtP null kill	PrP UTR inh	Bead autofluor
COc1ccc(/C(N)=N/OC(=O)Cc2ccc(C)cc2)cc1	-1	2	9	4.7	10	-36	2706
Cc1cc(C)nc(SCC(=O)Nc2ccc(S(=O)(=O)Nc3ncccn3)cc2)n1	12	8	4	9.8	-1	-15	3040
Cn1ccc(C(=O)NN=Cc2cccnc2)n1	15	4	.	2.4	15	.	.
O=C(NCc1ccc(-c2csnn2)cc1)c1cccs1	6	9	9	4.7	16	-10	4444
COc1ccc(N2CCN(C3CCCN(Cc4ccccc4OCCO)C3)CC2)cc1 (configuration not stated)	-1	11	-8	-2.4	-1	-16	4319
O=C(CCSCCC(=O)NCC1CCCO1)NCC1CCCO1 (configuration not stated)	7	-3	-13	0.9	-2	-15	3853
COc1cc(/C=N/NC(=O)COc2ccccc2[N+](=O)[O-])ccc1OC(=O)c1ccco1	.	.	-5	.	.	-20	2586
O=C(CSc1nc(Nc2ccccc2)nc(N2CCOCC2)n1)Nc1ccccc1Cl	-1	-4	10	8.0	-7	0	10800
CCOC(=O)C1C2C=CC3(CN(c4cccc(Cl)c4)C(=O)C13)O2 (configuration not stated)	.	.	7	0.1	12	4	4943
Cc1cc(=O)oc2ccc(OCC(=O)N(Cc3ccc(F)cc3)Cc3ccco3)cc12	.	.	4	4.6	-3	-13	4757
CCOc1ncnc2c1[nH]c1ccccc12	8	2	-3	3.3	-3	-26	5734
CCN(CC)C(=O)[C@H]1CC(CC(=O)NC/C=C(\C)CCC=C(C)C)C(=O)N2CCc3c([nH]c4ccc(OC)cc34)[C@]12C (some centres not stated)	-5	0	.	-1.8	-16	-10	4075
CN=C1SC(CC(=O)Nc2ccc(C(=O)O)cc2)C(=O)N1C (configuration not stated)	3	9	-5	2.1	-4	-7	6496
COc1cc([N+](=O)[O-])ccc1NC(=O)C[n+]1cccc(C)c1	3	8	3	1.1	-3	-28	3629
O=C(Nc1ccccc1Cl)c1ccc(-c2ccccn2)s1	-4	6	-4	-2.9	4	-110	4574
C[C@H](CO)N1C[C@H](C)[C@@H](CN(C)S(=O)(=O)c2ccccc2)Oc2ccc(NS(=O)(=O)c3cccs3)cc2C1=O	1	11	.	-8.8	-9	-18	4123
COc1cc(C(=O)Nc2ccc(O)cc2)ccc1OC(C)=O	6	-4	6	4.1	0	-27	4101
O=C(CN1C(=O)NC2(CCc3ccccc32)C1=O)Nc1ccccc1OC(F)F (configuration not stated)	-3	0	.	2.4	1	-9	4232
Cc1ccc(C)c(CSc2nnc(-c3cccs3)n2Cc2ccco2)c1	3	-4	8	1.2	-12	9	.
CN1C(=O)c2ccccc2Sc2ccc(NC(=O)N3CCCC3)cc21	4	7	14	-7.3	30	-13	3123
COc1cc(C=Nn2nnnc2N)ccc1OC(C)=O	5	-2	.	1.1	4	.	.
O=C(Nc1cccnc1)C1CCCN(c2ncnc3c2nc2n3CCCCC2)C1 (configuration not stated)	8	8	-3	1.5	3	-25	5125
O=C(NS(=O)(=O)c1ccc2c(c1)OCCO2)c1ccccc1	.	.	5	5.5	1	1	4648
OCCC1CN(Cc2cnc(-c3ccccc3)s2)CCN1CCc1ccccc1 (configuration not stated)	12	5	-1	0.7	15	-6	2282
Cc1cccc(NC(=O)CN2CCC(NC(=O)C3CCCCC3)CC2)c1C	12	3	-5	2.4	6	-4	2467
CCOC(=O)C1CCN(c2c(Nc3ccc4c(c3)OCCO4)c(=O)c2=O)CC1	7	8	0	0.9	14	-3	5542
Cc1cccc(/C=C(\c2nc3ccccc3[nH]2)S(=O)(=O)c2ccccc2)c1	2	-2	1	6.9	-7	-29	2380
CCOc1ccc(N=C2SCC(=O)N2CC)cc1	4	9	-3	4.1	10	-13	4383
CNC(=O)CN(Cc1ccccc1)S(=O)(=O)c1ccc(Cl)cc1	6	-11	-2	0.0	12	-11	4194
COc1ccc2nc(NC(=O)CSC(C)C(=O)Nc3cc(C)on3)sc2c1 (configuration not stated)	8	10	-6	-1.1	0	-27	4402
CC(NC(=O)NC1CCCCC1)C(c1cccs1)N1CCOCC1 (configuration not stated)	10	3	-1	-8.4	-5	-8	6560
NC1=NC2(CCCC2)N=C(Nc2ccccc2)N1	18	-6	-1	1.6	4	-10	4181
O=C(Nc1ccc(F)cc1F)c1sccc1SCc1cccc(C(F)(F)F)c1	-7	-2	2	-4.1	2	.	12232
C=CCn1c(SCc2ccc(F)cc2)nc2c1c(=O)[nH]c(=O)n2C	5	3	-6	3.0	9	-20	4125
CN(Cc1ccccc1)C(=O)c1ccc(NC(=O)Cc2ccc(NC(=O)C3CCN(C(=O)C4CCC4)CC3)cc2)cc1	0	-2	.	3.7	7	-11	3722
OCCNCCNCc1ccccc1OCc1ccccc1	1	0	-1	4.0	1	-8	3995
CN(Cc1ccccc1)C(=O)c1nc2ccccn2c1CNCCOc1cccnc1	10	6	2	4.2	3	-21	3826
Cc1cc(C(=O)Nc2ccc(F)c(Cl)c2)on1	8	0	4	-3.0	13	-32	2851
CC1CCc2sc3c(c2C1)c1ncnn1c(=O)n3CC(=O)c1ccc(Br)cc1 (configuration not stated)	.	.	1	-4.6	-7	-6	2059
COc1cccc(N2CCN(c3ccc(N4C(=O)CCC4=O)cc3[N+](=O)[O-])CC2)c1	9	4	7	13	9	-54	4703
CCOc1ncccc1C(=O)NCCCSc1ccccc1	16	8	-12	4.9	11	-14	4155
O=C(CNC(=O)c1ccccc1)Sc1ccccc1	7	8	.	-1.3	5	-25	3741
COc1ccc(S(=O)(=O)N2CCN(Cc3ccc(Cl)cc3)CC2)cc1	10	7	12	-0.5	13	-18	9333
Cc1cc(NC(=S)NC(=O)c2ccco2)c2ccccc2n1	4	9	-6	16	-19	-15	2076
O=C(Nc1ccccc1)Nc1nnc(CSCc2ccccc2Cl)s1	.	.	-2	.	.	-5	2145
CCOc1ccc(NC(=O)CSCC(=O)O)cc1	16	10	-2	2.3	1	-31	10083
C=CCN1C(=O)NC2(O)C(=O)c3ccccc3C12O (configuration not stated)	-4	1	-4	0.5	0	-30	9672
COc1ccc(CCNC(=O)CCC(=O)Nc2ccccc2[N+](=O)[O-])cc1OC	17	14	-7	9.3	9	-8	3679
O=c1cc(N2CCN(c3ccc(F)cc3)CC2)[nH]c(=O)n1Cc1ccc(F)cc1	-3	-1	2	-11	-8	-3	4649
CC(=O)c1ccc(NC(=O)C2(S(=O)(=O)c3ccccc3)CC2)cc1	-14	-9	8	3.6	0	8	5328
CCOC(=O)CCc1c(C)n(CC)c2ncnn2c1=O	1	8	4	1.8	8	13	4558
Cc1ccc(SCC(=O)N(Cc2nc(-c3ccccc3)no2)C(C)C)cc1	.	.	-9	-3.4	-14	-133	3144
c1ccc(CN2CCC(N3CCN(Cc4ccc5c(c4)OCO5)CC3)CC2)cc1	6	10	0	1.7	6	-19	4817
CCc1ccc(C(=O)Cn2ncc(Cl)c(Cl)c2=O)cc1	18	10	1	-5.0	-3	-19	2491
CN(NC(=S)Nc1ccc(OC(F)F)cc1)C(=S)Nc1ccc(OC(F)F)cc1	2	3	-4	2.1	10	-4	2253
O=c1cnn([C@@H]2O[C@H](CO)[C@@H](O)[C@H]2O)c(=O)[nH]1	.	.	23	.	.	34	5348

Next section.
SMILES	Mtb hypoxia rep	Mtb hypoxia rep growth	BJeLR viability	Sa RN4220 lethal	ugtP null kill	PrP UTR inh	Bead autofluor
O=C(NCCCn1ccnc1)C(=O)NCC1OCCCN1S(=O)(=O)c1ccc(Cl)cc1 (configuration not stated)	-5	1	-9	1.8	5	-10	2485
COc1ccc(/C=C(\C)c2nc(C)c(-c3ccccc3)c(=O)[nH]2)cc1	0	-10	0	0.5	-10	-15	3671
CCSc1ccccc1C(=O)N=C1NC(=O)CC2C(=O)NCCN12 (configuration not stated)	10	2	6	4.9	3	-22	3042
CCN(C(=O)COC(=O)/C=C/c1ccc2c(c1)OCO2)c1c(N)n(Cc2ccccc2)c(=O)[nH]c1=O	-5	3	.	2.2	2	-35	3569
CC1CCc2c(sc(NC(=S)NC(=O)c3ccccc3)c2C#N)C1 (configuration not stated)	-7	-2	8	-0.3	2	-37	5006
CCC(=O)Nc1cc(NC(=O)CSc2nnc(C(C)C)n2CC)ccc1C	.	.	8	2.2	3	-16	3790
Cc1ccc(N(C)S(=O)(=O)c2ccc(-c3cnc(C4CC4)o3)cc2)cc1	8	2	37	5.1	-7	44	4693
Cc1cc(Cl)ccc1NC(=O)Cn1cncn1	7	5	0	4.8	13	-4	3567
CCOc1nc(-c2ccncc2)nc2ccccc12	1	6	5	11	-5	-24	9445
COCCNC(=O)CSc1ccccc1C(=O)NC1CCCc2ccccc21 (configuration not stated)	-3	3	-9	-3.3	9	-34	3983
C=CCOc1c(Br)cc(C=NNc2ccc(C(=O)O)cc2)cc1OCC	11	6	.	-1.7	-16	.	.
O=C(NCc1cccs1)C1CC(=O)N(c2ccc(Cl)cc2)C1 (configuration not stated)	9	6	2	0.9	11	-27	9556
COc1cc(-c2csc(N3CCOCC3)n2)cc(OC)c1OC	10	9	2	-6.6	-10	-18	2932
CC(C)CN(C(=O)COc1ccc(Br)cc1C=O)C1CCS(=O)(=O)C1 (configuration not stated)	3	-1	0	2.8	2	-7	?
Cn1c(=O)c(=O)n(C)c2cc(S(=O)(=O)N3CCCCC3)ccc21	1	1	-1	4.2	2	1	23051*
O=C(COc1ccc(NC(=O)c2cccs2)cc1)c1ccc(F)cc1	4	-1	-20	3.9	6	-8	4891
Cc1ccc(S(=O)(=O)N(C)CC(=O)OCC(=O)NC(=O)NC(C)C)cc1	15	6	17	2.5	6	-18	5362
CCn1c(-c2cc(-c3ccccc3)sc2N)n[nH]c1=S	2	-2	2	6.4	-11	-23	5849
CC(=O)Oc1ccc(C2C3=C(CC(C)(C)CC3=O)Nc3cc4c(cc32)OCCO4)cc1 (configuration not stated)	4	-4	-9	-3.4	8	-10	?
Cc1ccc(-c2nc3ccccc3c(=O)n2Cc2ccccc2)cc1	-7	-1	-9	-8.3	43	-2	1964

Assay outcomes (PubChem)
